Screening data: PubChem BioAssay, several laboratories
MT1-MMP act inh: MT1-MMP (human) activation inhibition; P50281; HT1080 RFP-PRO-GFP cells, GFP/RFP ratio fluorescence, overnight; percent of plate control window, DMSO zero; GFP/RFP ratio change, % at 20 µM; 360,000 tested, 0.061% active;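 active = GFP/RFP ratio change of at least 30% with cell ATP level not reduced by more than half and red fluorescence within 50% of control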; note: strong numbers were not always called active
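Assay system: HT1080 RFP-PRO-GFP cells. Benchmarks: DMSO vehicle wells and RFP-L50D-GFP reporter cell wells. Times: overnight cell settling, then overnight compound exposure, 37 °C, 5% CO2. Compound: 20 µM single dose, 1% DMSO. Read-out basis: GFP/RFP fluorescence ratio.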
eIF4H FP inh: inhibitors of RNA binding by human eIF4H; 290,000 tested, 0.94% active; inhibition, % at 35 µM; AID 2012; eIF4H fluorescence polarization binding assay; Q15056;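 active = 50% or more with normal probe brightness, or confirmed in later tests; inconclusive = above 50% with abnormal brightness, or retests that disagree; inactive = below 50% or failed in later tests; about a fifth of its hits are not listed in these tables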;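 note: calls also rest on retests at 20 µM and on dose response follow-up; 0% = protein and probe with vehicle and 100% = probe without protein; strong numbers were not always called active; many hits fall short of the cut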
Yeast UUG start: modulators of start codon recognition fidelity in yeast | activity score, % at 18.7 µM | AID 602363 | 350,000 tested, 0.13% active | S. cerevisiae UUG-firefly luciferase reporter, luminescence/redox ratio;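 active = replicate mean at a twofold rise or more, about +100% in these data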;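 note: firefly luciferase made from a UUG start codon reports start codon fidelity; reporter light over untreated wells divided by growth signal over untreated wells; some hits fall short of that in this replicate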
Rce1 inh: inhibitors of yeast Ras-converting enzyme. Q03530. yeast membranes, quenched prenylated peptide cleavage fluorescence. calls only. 290,000 tested, 0.27% active;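 active = fall in fluorescence gain of 50% or more versus controls, with final raw signal at or below 3038400; inconclusive = same 50% fall but final raw signal above 3038400; inactive = fall in fluorescence gain under 50%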;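 note: plate controls were neutral control wells for no effect and wells lacking membranes for full effect; tested at 10 µM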
Target sequence (Q03530 whole entry, looked up): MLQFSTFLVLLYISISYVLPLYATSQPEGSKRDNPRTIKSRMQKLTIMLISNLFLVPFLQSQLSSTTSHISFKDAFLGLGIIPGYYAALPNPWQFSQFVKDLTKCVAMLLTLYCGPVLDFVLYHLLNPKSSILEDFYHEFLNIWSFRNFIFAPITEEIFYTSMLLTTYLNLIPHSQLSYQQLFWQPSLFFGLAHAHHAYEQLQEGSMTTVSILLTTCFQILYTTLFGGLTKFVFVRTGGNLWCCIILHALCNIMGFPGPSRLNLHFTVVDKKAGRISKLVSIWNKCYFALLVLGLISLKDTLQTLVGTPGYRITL
Env fusion inh: HIV envelope-mediated fusion inhibition. 360,000 tested, 1.1% active. AID 651610. HeLa-JRFL Env/CEM21 cell fusion, luciferase. inhibition, % at 12.3 µM;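 active = mean replicate inhibition score of at least 50 and every replicate individually at or above 50; inconclusive = only one of the two criteria met; inactive = mean below 50 and not all replicates reaching 50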;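 note: 0% = plate neutral controls and 100% = maraviroc near 300 nM; one replicate is shown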
PABP polyA inh: PABP-poly(A) binding inhibition. PABP-poly(A) RNA binding, fluorescence polarization. 290,000 tested, 1% active. inhibition, % at 35 µM. AID 2014;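 active = 50% or more with normal probe brightness, or confirmed in later tests; inconclusive = above 50% with abnormal brightness, or retests that disagree; inactive = below 50% or failed in later tests; about a fifth of its hits are not listed in these tables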;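 note: calls also rest on retests at 20 µM and on dose response follow-up; controls were probe without protein and protein plus probe with vehicle; some compounds called inactive have numbers as strong as hits; many hits fall short of the cut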
CSC inhib: blocks cancer stem cells. AID 2717. cancer stem cell-like cells viability, luminescence. 300,000 tested, 1.1% active. inhibition, % at 7.5 µM;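 active = mean at 75% or more and at least half the replicates too; inconclusive = mean and replicates disagree; tested in HMLE shEcad cells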;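 note: 0% = median of negative and 100% = median of positive control wells; the first replicate is given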
eIF4H FP inh retest: further read-out of eIF4H FP inh, marked with its call; inhibition, %; compound at 20 µM; confirmation average;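 mean of two retest wells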
PABP polyA inh retest: further read-out of PABP polyA inh, marked with its call; inhibition, %; compound at 20 µM; confirmation repeats;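 mean of two retest wells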
MT1-MMP act inh RFP: also measured in MT1-MMP act inh; calls as there; RFP signal change, %; measured here: RFP expression control read;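 0 = vehicle wells; hits needed this value within 50% of zero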
* hit, by the source's call; i = inactive; ? = inconclusive; · = no result given; + = active, no number; & = joins results of further samples.

SMILES	MT1-MMP act inh	MT1-MMP act inh RFP	eIF4H FP inh	Yeast UUG start	Rce1 inh	Env fusion inh	PABP polyA inh	CSC inhib	others
CC(=O)NO	2	4	·	8	i	·	·	3
Brc1ccc(-n2cccc2/C=N/n2cnnc2)cc1	1	-3	-12	-4	i	·	6	-15
COc1cc(C)c(Cl)cc1S(=O)(=O)NCCN1CCOCC1	-1	0	-7	46	i	-66	10	-1
COc1cc([C@@H]2CC=C(C(=O)O)[C@H](c3ccccc3)N2S(=O)(=O)c2ccc(C)cc2)cc(OC)c1OC	5	1	·	1	·	-10	·	-4
CCn1nc(C)c(/C=N/NC(=O)Cn2nccc2C)c1C	8	6	-2	-6	i	-7	10	0
Cc1cc(=O)oc2cc(OC(C)C(=O)NCCCN3CCCC3=O)c(Cl)cc12 (stereo unspecified)	1	3	-3	-15	i	-9	1	-8
Cc1csc(=O)n1CCC(=O)OCC(=O)Nc1cc(Cl)ccc1[N+](=O)[O-]	1	3	·	·	i	26	·	5
CN(CCOCCOc1ccc2ccccc2c1)Cc1ccccc1	1	14	0	-13	i	-14	-12	36
COC(=O)c1ccc(CSCc2ccc(C(=O)OC)o2)o1	-1	0	2	-10	i	-4	8	-7
O=C1CN(C(=O)NCC(=O)N[C@@H](Cc2ccccc2)C(=O)O)c2ccccc2N1	-2	2	8	-39	i	·	3	2
CSc1nc(N)c(C(=O)NC2CCCCC2)s1	-2	0	1	-13	i	4	-1	8
COc1cccc(NC(=O)C2C3C=CC4(O3)C2C(=O)N(C(C)C)C4C(=O)NC2CCCCC2C)c1 (stereo unspecified)	-5	-7	11	18	i	-107	3	-21
O=c1[nH]c(=O)n([C@H]2C[C@H](O)[C@@H](CO)O2)cc1I	4	7	·	-6	·	-71	·	-2
c1ccc(C(c2c[nH]c3ccccc23)c2c[nH]c3ccccc23)nc1	-2	-8	9	-19	i	·	8	-8
O=C(c1cccs1)N1CCN(Cc2nc(-c3ccccc3)no2)CC1	1	0	·	-6	·	-18	·	·
Cc1csc(=O)n1CCC(=O)OCc1nnc(-c2ccccc2)o1	-1	0	·	13	i	-18	·	-11
CC(C)CN(C(=O)COC(=O)c1cccnc1Cl)c1c(N)n(Cc2ccccc2)c(=O)[nH]c1=O	-1	2	·	-15	i	6	·	-1
O=C(Nc1ccccc1F)c1ccc(COc2ccc(Cl)cc2Cl)o1	-1	-5	1	·	i	-31	10	41
Cc1nc2nc(SCC(=O)NCc3ccco3)nn2c(C)c1Cc1ccccc1	-1	2	4	-18	i	-32	11	-10
O=C(c1cc(COc2cccc3cccnc23)on1)N1CCC[C@H]1CO	4	9	·	-28	·	-13	·	·

Pulled by structure from above (two):
SMILES	MT1-MMP act inh	MT1-MMP act inh RFP	eIF4H FP inh	Yeast UUG start	Rce1 inh	Env fusion inh	PABP polyA inh	CSC inhib	others
Cc1csc(=O)n1CCC(=O)OCc1nnc(-c2ccccc2)o1	-1	0	·	13	i	-18	·	-11
COc1cc([C@@H]2CC=C(C(=O)O)[C@H](c3ccccc3)N2S(=O)(=O)c2ccc(C)cc2)cc(OC)c1OC	5	1	·	1	·	-10	·	-4

Further records:
SMILES	MT1-MMP act inh	MT1-MMP act inh RFP	eIF4H FP inh	Yeast UUG start	Rce1 inh	Env fusion inh	PABP polyA inh	CSC inhib	others
COc1ccc(CN(C)CC(=O)Nc2ccccc2C(F)(F)F)cc1	-2	-1	2	·	·	7	-4	44
CC(C)[C@H](NC(=O)c1ccccc1Cl)C(=O)OCc1cc([N+](=O)[O-])cc2c1OCOC2	-3	1	-1	-15	i	8	-6	2
O=c1cc(NCc2ccccc2)[nH]c(=O)[nH]1	3	1	·	·	i	-8	·	-10
COc1ccccc1-n1cc2ccc([N+](=O)[O-])cc2n1	-5	-4	·	·	i	-26	·	2
CN1c2ccccc2-c2nc3ccccc3n2C1c1cccs1 (stereo unspecified)	1	-11	-5	-16	+	·	-5	9
CCOC(=O)C1=C(C)N=c2sc(=Cc3ccc(OCC(=O)O)cc3)c(=O)n2C1c1ccc(SC)cc1 (stereo unspecified)	-14	-9	·	-13	·	20	·	·
COCCNC(=O)/C(C#N)=C/c1c(F)cccc1Cl	-9	0	-2	·	i	-16	9	-16
CN(Cc1cccc(F)c1)C(=O)CN1CCN(S(=O)(=O)c2ccc3c(c2)OCCCO3)CC1	10	-3	·	0	·	9	·	·
CC1CN(C(=O)/C=C/c2ccccc2[N+](=O)[O-])CC(C)O1 (stereo unspecified)	-3	3	-3	·	i	6	-2	·
C[C@@H]1CC[C@@]2(O[C@H](CCO)C[C@@H](O)[C@@H]2O)O1	2	4	-6	-20	i	-4	-8	-8
Cc1ccc(NC(=O)C2(c3cccs3)CCOCC2)cc1C	4	6	7	-13	i	·	4	19
Cn1nnnc1SCSc1nnnn1C	-5	-4	0	-20	i	·	3	-1
Cc1ccc(C)c(C(O)c2ncc(-c3ccccc3)[nH]2)c1 (stereo unspecified)	4	-5	·	-10	·	-5	·	·
COc1ccccc1NC(=O)c1cc(Cl)nc2ccccc12	-3	2	-3	·	i	19	-4	-8
O=C1CC(c2ccncc2)c2cc3c(cc2N1)OCO3 (stereo unspecified)	5	10	-3	4	i	·	9	-11
Cc1[nH]c(C)c(S(=O)(=O)NCCc2ccccc2)c1C(=O)N1CCCCC1	-3	-1	-2	-3	i	-7	5	-8
COc1ccccc1OCC(=O)N(Cc1nc(-c2ccccc2)no1)C(C)C	0	-4	2	1	i	-1	-6	-1
Cc1cccc(NC(=S)N(CCCN2CCOCC2)C(C)c2cc3ccccc3o2)c1 (stereo unspecified)	-2	1	1	·	i	1	-5	-1
O=C(NC1CCCC1)c1cc2c(=O)n3ccccc3nc2s1	0	3	·	-6	·	-7	·	-14
COc1ccc(CCNC(=O)CC(c2ccccc2)c2cccc(C)c2O)cc1OC (stereo unspecified)	2	-8	-7	1	i	?	1	-2

Filtered by structure, the compounds so far with an NH in an aromatic ring (six)
SMILES	MT1-MMP act inh	MT1-MMP act inh RFP	eIF4H FP inh	Yeast UUG start	Rce1 inh	Env fusion inh	PABP polyA inh	CSC inhib	others
O=c1[nH]c(=O)n([C@H]2C[C@H](O)[C@@H](CO)O2)cc1I	4	7	·	-6	·	-71	·	-2
c1ccc(C(c2c[nH]c3ccccc23)c2c[nH]c3ccccc23)nc1	-2	-8	9	-19	i	·	8	-8
CC(C)CN(C(=O)COC(=O)c1cccnc1Cl)c1c(N)n(Cc2ccccc2)c(=O)[nH]c1=O	-1	2	·	-15	i	6	·	-1
O=c1cc(NCc2ccccc2)[nH]c(=O)[nH]1	3	1	·	·	i	-8	·	-10
Cc1ccc(C)c(C(O)c2ncc(-c3ccccc3)[nH]2)c1 (stereo unspecified)	4	-5	·	-10	·	-5	·	·
Cc1[nH]c(C)c(S(=O)(=O)NCCc2ccccc2)c1C(=O)N1CCCCC1	-3	-1	-2	-3	i	-7	5	-8

Going on with the list:
SMILES	MT1-MMP act inh	MT1-MMP act inh RFP	eIF4H FP inh	Yeast UUG start	Rce1 inh	Env fusion inh	PABP polyA inh	CSC inhib	others
CC1CC(NC(=O)c2c(O)nc3ccccn3c2=O)CC(C)(C)C1 (stereo unspecified)	3	1	·	-7	·	13	·	·
O=C(CNS(=O)(=O)c1ccc(F)c(Cl)c1)N1CCCCCC1	2	4	7	-7	i	-1	0	-7
CCOC(=O)CSc1nc(=O)n2ccccc2n1	-6	-5	-1	·	i	1	4	2
CCOC(=O)C1=C(CS(=O)(=O)c2ccccc2)NC(=O)NC1c1cc(OC)c(O)c(OC)c1 (stereo unspecified)	-2	0	8	23	i	8	4	-9
CCOC(=O)C1=C(C)NC(C)=C(C(=O)OCC)C1C(=O)OCC(=O)N1c2ccccc2CC1C (stereo unspecified)	-3&-4	0&-10	4	-2	·	13&-12	0	-4
CCOC(=O)CC(=O)c1sc2c(c1N)c(=O)[nH]c(=O)n2-c1ccc(OC)cc1	-1	5	-11	-1	i	11	16	1
O=c1[nH]cnc2c1C(c1ccccc1[N+](=O)[O-])c1c(nc[nH]c1=O)O2	-5	1	-8	5	i	-19	9	-7
COc1ccccc1CNc1nc(Nc2ccc(C)cc2C)c2sccc2n1	2	-19	·	10	·	21	·	·
C/C(=N\NC(N)=O)c1ccc(-n2ccnc2)cc1	1	2	-10	-9	i	5	-2	·
CCOc1ccc(NC(=O)CN(C)C(=O)CC(NC(=O)c2ccccc2)c2ccccc2)cc1OCC (stereo unspecified)	4	-1	·	-1	i	-14	·	-12
Cc1ccc(NC(=O)CN2C(=O)S/C(=C\c3cccn3-c3cccc(C(=O)O)c3)C2=O)c(C)c1	15	5	91*	-18	i	·	41*	32	eIF4H FP inh retest=51*;PABP polyA inh retest=54*
C=CCn1c(=S)[nH]c2nc3c(cc2c1=O)COC(C)(C)C3	-3	-6	-12	-18	i	-43	4	·
CN(Cc1ccccc1)C(=O)C1(C)CCN1C(=O)Cc1ccc(Cl)cc1Cl (stereo unspecified)	7	-11	·	5	·	10	·	·
CCOc1cccc(C(=O)NC(=S)Nc2cccnc2)c1	-7	0	-2	·	i	21	1	-22
C[C@H](NC(=O)/C=C/[C@H]1O[C@@H](n2ccc(=O)[nH]c2=O)[C@H](O)[C@@H]1O)C(=O)O	0	4	·	2	·	-24	·	·
COc1ccc(Cc2nnc(SCC(=O)c3ccc4c(c3)OCO4)o2)cc1	3	4	·	-17	i	1	·	-13
Cc1cc(C)nc(SCC(=O)Nc2ncccn2)n1	·	·	2	·	i	20	4	-14
O=C1NCCCC1(c1ccccc1)c1ccccc1	2	3	·	-17	·	17	·	·
OC(COc1ccc(Br)cc1)CN1CCOCC1 (stereo unspecified)	-1	3	-9	-17	i	·	-4	·
CSCC[C@@H](Nc1nc(-c2ccccc2)nc2c1oc1ccccc12)C(=O)O	1	1	18	-1	i	19	6	10
CN(CC(=O)Nc1cccc(F)c1)C(=O)c1ccc(C(=O)c2ccccc2)cc1	0	-15	·	-15	·	6	·	·

Compounds as they come; 2.9% or so of the library scored in one or more.
